B2AR ag: human beta-2 adrenergic receptor agonism by FAP. AID 504454. actives 0.43% (n = 340,000). Am2.2-beta2AR cells, FAP receptor internalization, flow cytometry; reference of the scale not given here. response, % (test concentration not listed);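 active = response above a set limit, near 3 SD of response in nonfluorescent compounds, cut at about 42% in these data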;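 note: stock transfer was 100 nL into about 11 µL; a reference agonist was the positive control; negative values mostly stem from fluorescent compounds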
Target sequence (P07550 whole entry, looked up): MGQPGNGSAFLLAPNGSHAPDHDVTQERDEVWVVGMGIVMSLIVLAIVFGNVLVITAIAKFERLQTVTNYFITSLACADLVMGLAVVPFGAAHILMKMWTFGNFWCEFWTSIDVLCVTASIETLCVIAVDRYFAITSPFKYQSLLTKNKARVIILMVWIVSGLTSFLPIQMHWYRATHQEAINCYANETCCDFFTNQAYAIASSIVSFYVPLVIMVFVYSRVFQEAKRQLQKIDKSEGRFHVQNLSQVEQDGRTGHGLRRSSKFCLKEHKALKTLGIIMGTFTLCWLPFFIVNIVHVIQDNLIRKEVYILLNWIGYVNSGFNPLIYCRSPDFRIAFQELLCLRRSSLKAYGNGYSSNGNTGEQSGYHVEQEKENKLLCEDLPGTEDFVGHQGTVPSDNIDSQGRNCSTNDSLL
Bfl-1 A1 inh: inhibitors of the anti-apoptotic protein A1, read as caspase activation; MEF A1-2A-BIM cells, Caspase-Glo 3/7 luminescence, 3 h; percent of clofoctol response, vehicle zero; caspase activation, % (concentration not given with the values); actives 0.066% (n = 330,000);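 active = over half of replicate activation scores above 10%, or exactly half above 10 with the replicate mean above 10; inconclusive = replicate mean below 10 yet half the replicates above 10; inactive = over half of replicates below 10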;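 note: wells of about 30 µL received 50 nL stock; many hits fall short of the cut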
E coli growth: E. coli growth inhibition; AID 1053175; Escherichia coli growth, OD600, 23 h; hits give low values; OD600 absorbance (test concentration not listed); actives 0.21% (n = 330,000);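 active = OD600 absorbance below the run mean of sample wells minus 3.6 SD, in any replicate, cut at about 0.56 in these data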;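 note: stock transfer was 300 nL into about 60 µL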
UCH37 inh: human UCH37 deubiquitinating enzyme inhibition | purified proteasome/UCH37, Ub-AMC cleavage fluorescence | inhibition, % (concentration not given with the values) | actives 0.33% (n = 330,000);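 active = mean of two replicates above 20%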;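 note: 0% = compound-free wells with enzyme and 100% = wells lacking proteasome; stock transfer was 100 nL into about 20 µL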
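assay system = human UCH37 enzyme supplied as purified proteasome complex | amount = proteasome at 0.15 nM in the dispensed enzyme solution | schedule = 30 min compound-proteasome preincubation then 25 min substrate reaction, room temperature | measured by = fluorescence, ex 355 nm, em 460 nm | benchmarks = no-proteasome wells (full inhibition) and compound-free wells (no inhibition)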
HNF4A DNA FP: change in binding of human HNF4 alpha to DNA | HNF4a-FITC DNA binding, fluorescence polarization, 1 h | activity change, % at 10 µM | actives 0.3% (n = 360,000) | P41235 | AID 1224865; in the data active = activity change above about 30%, passing the limit was not always enough;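 note: controls were the assay level and a saturating level of protein; the project sought stronger binding though the title names inhibitors; some compounds called inactive have numbers as strong as hits; positive values seem to mean higher polarization but the record does not say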
Target sequence (P41235 whole entry, looked up): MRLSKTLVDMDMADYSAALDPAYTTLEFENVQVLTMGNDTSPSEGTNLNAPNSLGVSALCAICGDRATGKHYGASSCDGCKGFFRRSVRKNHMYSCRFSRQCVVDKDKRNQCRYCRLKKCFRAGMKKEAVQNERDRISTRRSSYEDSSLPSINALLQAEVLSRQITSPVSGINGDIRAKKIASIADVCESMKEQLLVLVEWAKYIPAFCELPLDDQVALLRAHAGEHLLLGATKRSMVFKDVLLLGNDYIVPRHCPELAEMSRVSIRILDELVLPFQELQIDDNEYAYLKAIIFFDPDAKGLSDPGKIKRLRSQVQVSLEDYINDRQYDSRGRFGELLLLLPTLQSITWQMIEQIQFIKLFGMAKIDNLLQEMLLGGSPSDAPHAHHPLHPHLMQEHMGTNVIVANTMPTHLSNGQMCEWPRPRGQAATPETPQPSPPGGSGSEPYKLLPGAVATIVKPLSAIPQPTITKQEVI
LANA-H2B inh: blocks KSHV LANA binding to histone H2A/H2B; Q9QR71; cell-free LANA-H2A/H2B peptide, fluorescence polarization; inhibition, % (no concentration beside the values); actives 0.6% (n = 320,000); AID 2629; in the data active = inhibition mostly above about 10%, no sharp cut-off; inactive = mostly below about 6.7%;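 note: stock transfer was 7.5 nL into about 10 µL; 0% = median of vehicle wells and 100% = median of positive control wells; one replicate is shown; the record names a cut of 25% in any replicate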
Vif TR-FRET: inhibitors of Vif binding to APOBEC3G peptide, primary screen, biochemical, TR-FRET, GST-Vif 1-94, biotin-A3G peptide, dose response retest (AID 1117319) | one-dose inhibition, %; IC50 in µM for titrated hits | TR-FRET GST-Vif / biotin-A3G peptide binding; higher % means a stronger effect; test concentration not given here; strong numbers were not always called active | actives 0.57% (n = 260,000);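 active = above the screen mean plus three standard deviations and confirmed in dose response; inconclusive = results disagree or hit not tested in dose response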;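 note: Vif residues 1-94 fused to GST binding biotinylated APOBEC3G peptide 110-148; 0% = full assay without inhibitor and 100% = GST in place of GST-Vif; retest series ran down from 100 µM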
* marks the source's active call; other numbers are inactive results; ? = inconclusive; · = no result given.

SMILES	B2AR ag	Bfl-1 A1 inh	E coli growth	UCH37 inh	HNF4A DNA FP	LANA-H2B inh	Vif TR-FRET
Cc1cccc(C(=O)N2CCN(c3ccc(C(F)(F)F)cn3)CC2)c1C	0	-0.5	0.76	-0.5	4.6	-2.0	-7%
CCOCCC(=O)Nc1nnc(CCc2ccccc2)s1	-1	0.5	0.68	9.6	-4.7	2.3	-2%
CCOc1ccc(-c2nc(C#N)c(NCC(C)C)o2)cc1	1	-0.1	0.72	-46	1.1	-3.2	-5%
Cc1ccc(S(=O)(=O)NCCC(c2ccc(F)cc2)c2ccco2)cc1 (stereo not drawn)	-4	0.5	0.7	2.4	1.9	2.7	·
CC(C)(C)c1ccc(C(=O)NC(=S)Nn2cnnc2)cc1	-5	-0.2	0.63	2.7	0.5	-4.8	·
CCN(CC(=O)NCc1cccs1)C(=O)c1cccc(S(=O)(=O)Nc2ccc(OC)cc2)c1	9	0.1	0.69	4.9	-1.7	1.4	-3%
Cc1ccc(-n2c(SCc3ccc(C#N)cc3)nnc2-c2ccccn2)cc1	2	0.3	0.75	0.5	-4.1	0.1	10%
COc1ccc2nc(NC(=O)Cn3cnc4ccccc4c3=O)sc2c1	-14	-0.4	0.64	-5.8	4.5	177*	7%
Cc1cccc(-c2nc3cc(NC(=O)C4CCCO4)ccc3o2)c1 (stereo not drawn)	-8	-7.8	0.7	-57	-2.3	-0.3	-26%
CN(c1ccccc1)S(=O)(=O)c1ccc2ccccc2c1	-4	0.9	0.7	5.3	0.1	-0.5	·
CC(C)(C)OC(=O)N1CCC(c2c(C(=O)NC3CC3)cnn2-c2ccc(Cl)cc2)CC1	8	0.2	0.71	-2.0	1.4	-3.0	·
O=C(c1ccccc1)N1N=C(c2ccccc2O)CC1c1ccccc1 (stereo not drawn)	-14	-0.6	0.7	0.3	0.9	-1.7	-10%
O=C(NCCN1CCOCC1)c1sc2cc(Cl)ccc2c1Cl	-6	0.6	0.61	2.2	0.7	-4.3	·
CCN1C(C)=C(C)S/C1=C1\SC(=S)N(C2CCCCC2)C1=O	8	-0.7	·	0.5	-35	-7.3	26%
CCN(CC)C(=O)c1sc(NC(=O)c2cccc([N+](=O)[O-])c2)c(C#N)c1C	0	0.0	0.71	8.0	0.9	-2.6	9%
C#CCOCCOCCOCCNc1nc(N2CCN(C(=O)Cn3cc(CCO)nn3)CC2)nc(N2CCN(C(=O)Cn3cc(CC(C)O)nn3)CC2)n1 (stereo not drawn)	-2	·	0.72	2.4	5.6	·	·
CCCCOn1c(C)c(C(=O)OCC)c2c3no[n+]([O-])c3ccc21	-14	-0.5	0.68	4.3	0.8	-1.7	2%
O=C(CCNS(=O)(=O)c1ccc(Cl)cc1)N1CCCC1	-8	-0.6	0.68	0.4	0.8	4.6	27%
O=C1CCCN1c1ccc(S(=O)(=O)NCCOc2ccccc2)cc1	3	0.5	0.7	6.1	-3.4	-0.3	-10%
COc1ccc(-c2noc(N3CCC(C(=O)Nc4ccccc4F)CC3)n2)cc1	-2	1.0	0.72	2.5	2.3	5.1	·
CCn1ncc(Br)c1C(=O)Nc1cc(C)ccc1F	-3	0.3	0.76	0.6	-0.9	0.1	?
O=C(Nc1ccc2c(c1)OCCO2)c1cc(-c2ccccn2)nc2ccc(Br)cc12	3	0.4	0.72	1.3	4.0	1.1	-14%
CC(=O)c1sc(NC(=O)CN2C(=O)C3CC=CCC3C2=O)nc1-c1ccccc1 (stereo not drawn)	-14	1.1	·	·	1.6	·	·
CC(=O)N1CCN(c2ccccc2NC(=O)c2ccc(C#N)cc2F)CC1	0	0.7	0.73	2.1	4.9	-2.2	1%
COc1ccc2nc(SCC(=O)NC3CCCCC3)[nH]c2c1	0	0.2	0.66	0.8	-0.6	-1.2	·
CCOc1ccccc1N1CCN(C(=O)COc2ccc3c(C)cc(=O)oc3c2)CC1	-10	-0.7	0.64	-37	-5.1	-1.8	·
COc1ccccc1NC(=O)CN(C)S(=O)(=O)c1ccc2c(c1)CCC(=O)N2	3	0.7	0.71	3.3	1.6	4.1	-2%
COc1ccc(S(=O)(=O)N2CCN(C(=O)CN3C(=O)NC(C)(c4ccc5ccccc5c4)C3=O)CC2)cc1 (stereo not drawn)	-2	1.2	0.7	4.3	-0.4	-2.8	2%
Cc1c(NC(=O)Nc2cccs2)cccc1[N+](=O)[O-]	-15	0.6	0.67	4.0	4.6	-10	·
CCOC(=O)c1ccccc1NC(=O)c1ccccc1N(C)S(C)(=O)=O	-1	0.9	0.72	-3.1	1.9	-4.2	-1%
CN(C)CCCNS(=O)(=O)c1cc(Cl)ccc1Cl	-1	-0.1	0.76	0.9	3.7	2.2	-1%
O=C(CC(=O)c1c(F)cccc1Cl)c1ccccc1O	-3	-0.4	0.66	7.0	0.8	-6.6	1%
O=C(NNC(=O)c1ccccc1OCc1ccccc1)c1ccccc1O	-7	1.4	0.7	-11	-2.9	0.4	·
COCC(=O)N(Cc1cc2ccccc2[nH]c1=O)c1ccc(OC)cc1	-6	1.3	0.77	1.6	0.9	4.4	-2%
O=C(Cn1c(NCCO)nc2ccccc21)c1ccc(Cl)cc1	-2	0.5	0.74	1.8	0.0	-3.4	3%
COc1ccccc1C(=O)Nc1cccc(C(=O)c2ccccc2)c1	-6	-0.1	0.66	-3.1	4.6	1.8	0%
Cc1ccc(S(=O)(=O)N2CCC[C@H]2C(=O)OCCN2C(=O)c3ccccc3C2=O)cc1	11	·	0.68	-2.6	-0.4	·	-8%
O=C(O)COc1ccccc1Cc1ccccc1	1	0.3	0.69	6.1	1.2	0.6	6%
Cc1ccc(S(=O)(=O)N2CCCC2C(=O)Oc2ccccc2)cc1 (stereo not drawn)	13	0.3	0.72	-0.3	1.0	-2.6	-3%
CCCCN(C(=O)c1ccc2c(c1)OCO2)c1c(N)n(CC(C)C)c(=O)[nH]c1=O	4	-0.7	0.69	0.8	-2.5	-5.1	-13%
Cc1ccccc1N1CCN(C2CCCN(C(=O)c3ccccn3)C2)CC1 (stereo not drawn)	3	1.5	0.69	3.9	-1.3	1.2	-5%
O=C(Nc1ccc(-c2csc(Nc3ccccc3)n2)cc1)c1cc([N+](=O)[O-])cc(C(F)(F)F)c1	0	0.6	0.7	-1.4	0.1	-0.7	0%
COc1ccc(C(=O)CSc2n[nH]c(-c3ccco3)n2)cc1	-6	·	0.59	2.1	-1.6	10	18%
O=C(c1cc([N+](=O)[O-])ccc1N1CCOCC1)N1CCCC1	3	0.6	0.72	9.1	-1.0	1.3	10%
CCOC(=O)c1c(-c2ccccc2)[nH]c2ccc(O)cc12	31	0.5	0.72	-59	-1.7	-5.6	6%
CC1CCN(C(=O)CCc2nnc3ccc(N4CCC5(CC4)OCCO5)nn23)CC1	4	0.0	0.67	2.0	6.5	-0.3	·
O=C(Nc1nc2cc3c(cc2s1)OCCO3)C1CCCCC1	15	·	0.65	0.6	1.5	·	-6%
O=C1C(=O)N(CCN2CCOCC2)C(c2ccccc2F)/C1=C(\O)c1ccc(S(=O)(=O)N2CCOCC2)cc1 (stereo not drawn)	6	-0.4	0.67	7.8	1.1	-1.5	·
COc1ccc(OC)c(NC(=O)C2CCN(C(=O)c3cccs3)CC2)c1	-8	0.3	0.67	-1.9	4.2	1.9	-2%
CCc1cccc(C)c1NC(=O)Nc1ccc2c(c1)OCO2	12	1.1	0.7	7.0	1.6	-5.0	·
Cc1cc(C)c(C)c(OCC(=O)NCc2nc(-c3ccccc3)no2)c1	-2	-0.6	0.79	1.2	1.1	-2.0	1%
COc1cccc(CN2CC(C(=O)N3CCN(c4ccc(Cl)cc4)CC3)CCC2=O)c1 (stereo not drawn)	4	1.1	0.71	-1.4	7.0	0.6	-1%
CCSc1nnc(NC(=O)CCNS(=O)(=O)c2cc(Br)cnc2N)s1	0	0.3	0.72	1.6	3.1	-1.8	-6%
CCCCNC(=O)c1cc2c(-c3ccc(Cl)cc3)nn(C)c2s1	-3	0.5	0.74	-0.5	-3.1	4.8	2%
Cn1[nH]c(C(F)(F)F)c(C=Nc2ccc(Cl)cc2)c1=O	-2	1.3	0.68	0.4	4.0	3.7	6%
CC1CCCN(C(=O)COC(=O)c2cc(Br)ccc2O)C1 (stereo not drawn)	-6	1.1	0.69	1.7	3.9	1.9	·
CCCCCN(C(=O)CCC(=O)OCc1ccc(Cl)cc1Cl)c1c(N)n(CCCC)c(=O)[nH]c1=O	5	0.0	0.71	6.0	1.9	4.7	3%
COc1ccc(Nc2cc(C(=O)NCCCOC(C)C)c3ccccc3n2)c(OC)c1	8	1.1	0.66	5.5	0.2	1.9	-4%
CC(C)(C)N(NS(=O)(=O)c1ccc(F)cc1)c1ccccc1	-10	0.3	0.68	-1.4	0.4	-2.7	1%
O=C(CC12CC3CC(CC(Br)(C3)C1)C2)NCc1ccccc1	-1	-0.1	0.68	6.6	-2.4	-1.8	4%

Just LANA-H2B inh, B2AR ag and E coli growth, for some of the entries so far:
Compound	LANA-H2B inh	B2AR ag	E coli growth
CC1CCCN(C(=O)COC(=O)c2cc(Br)ccc2O)C1 (stereo not drawn)	1.9	-6	0.69
CCCCCN(C(=O)CCC(=O)OCc1ccc(Cl)cc1Cl)c1c(N)n(CCCC)c(=O)[nH]c1=O	4.7	5	0.71
COc1ccc(Nc2cc(C(=O)NCCCOC(C)C)c3ccccc3n2)c(OC)c1	1.9	8	0.66
CC(C)(C)N(NS(=O)(=O)c1ccc(F)cc1)c1ccccc1	-2.7	-10	0.68

(cont.)
SMILES	B2AR ag	Bfl-1 A1 inh	E coli growth	UCH37 inh	HNF4A DNA FP	LANA-H2B inh	Vif TR-FRET
O=C(O)CSC(=S)N1CCCC1	-1	0.4	0.73	-0.6	5.3	-3.8	-9%
COC(=O)c1sc(NC(=O)c2csc3c2CCCC3)nc1C	-22	-1.7	0.72	-3.5	0.6	-1.8	-5%
CCc1c(C)nc2[nH]nc(NC(=O)C(F)(F)F)n2c1=O	8	-0.1	0.68	-2.1	2.6	4.3	14%
COCCSc1nnc(NC(=O)C2CC(=O)N(C3CCCC3)C2)s1 (stereo not drawn)	3	-0.3	·	·	-2.4	4.2	·
CC(OC(=O)c1oc2ccccc2c1COc1ccccc1)C(N)=O (stereo not drawn)	8	0.8	0.72	1.3	-0.6	10.0	29%
Cc1onc(COc2ccccc2O)c1Br	-2	-0.2	0.68	3.3	-4.9	2.6	-3%
O=c1[nH]c(-c2ccccc2)ncc1Oc1ccccc1	0	-0.7	0.62	1.4	0.2	-6.8	·
CCN(C(=O)C1CCCN(c2nc(-c3ccc(OC)cc3)no2)C1)c1ccccc1F (stereo not drawn)	5	-0.5	0.77	4.2	3.6	1.6	·
CCOc1ccc(NC(=O)Cc2c(C(=O)O)n(C)c3ccccc23)cc1	2	-0.5	0.66	6.1	-4.7	-0.5	5%
CC(=O)c1ccc(NC(=O)CC(NCCC2=CCCCC2)C(=O)O)cc1 (stereo not drawn)	6	0.4	0.68	6.2	2.4	-1.5	18%
CCc1ccc(N2CC34C=CC(O3)C(C(=O)OC(C)C)C4C2=O)cc1 (stereo not drawn)	4	0.8	0.74	4.8	1.4	-6.0	10%
Cc1ccc(/C=C/C(=O)Nn2cnnc2)cc1	6	0.5	0.71	3.6	-1.7	1.2	4%

3 structures already listed, sorted by number of heavy atoms, ascending.
SMILES	B2AR ag	Bfl-1 A1 inh	E coli growth	UCH37 inh	HNF4A DNA FP	LANA-H2B inh	Vif TR-FRET
O=c1[nH]c(-c2ccccc2)ncc1Oc1ccccc1	0	-0.7	0.62	1.4	0.2	-6.8	·
COC(=O)c1sc(NC(=O)c2csc3c2CCCC3)nc1C	-22	-1.7	0.72	-3.5	0.6	-1.8	-5%
CC(OC(=O)c1oc2ccccc2c1COc1ccccc1)C(N)=O (stereo not drawn)	8	0.8	0.72	1.3	-0.6	10.0	29%

High-throughput results: PubChem BioAssay, several laboratories

Rows are unselected. Share with any hit: about 2.1%.
